Marburg entry inh: qHTS for inhibitors of binding or entry into cells for Marburg Virus. Marburg virus pseudotyped entry inhibition, cell reporter; control for the full effect not named in the record; about a third of the inactives were read at about 46 µM. Potency, µM (top dose mostly 37.8 µM), inactives show at the highest dose activity change, negative = inhibition, usual class: inhibitors. hit rate 1.8% among 300,000; active = well fitted inhibition curve with a large enough effect; inconclusive = small, poorly fitted or top-dose-only effect, or effect the other way; inactive = flat fitted curve, though single readings scatter; tested in HEK293 cells; about a fifth of its hits are not listed in these tables; also: % is scaled to controls: 0 for no effect and ±100 for the full control effect; luciferase read-out
Cruzain inh Det: qHTS Assay for Promiscuous and Specific Inhibitors of Cruzain (with detergent); Cruzipain (Trypanosoma cruzi), P25779; purified cruzain, Z-FR-AMC fluorescence, 0.01% Triton; Potency, µM, inactives show max response, negative = inhibition, actives largely listed as inhibitors; hit rate 0.43% among 200,000; AID 1478, 2009;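 also: plate controls were neutral wells for no effect and buffer without enzyme for full effect; nearly all actives have a fitted effect of over 40% in size; top concentration of the series not given in the record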
Target sequence (P25779 123-467 limits assumed): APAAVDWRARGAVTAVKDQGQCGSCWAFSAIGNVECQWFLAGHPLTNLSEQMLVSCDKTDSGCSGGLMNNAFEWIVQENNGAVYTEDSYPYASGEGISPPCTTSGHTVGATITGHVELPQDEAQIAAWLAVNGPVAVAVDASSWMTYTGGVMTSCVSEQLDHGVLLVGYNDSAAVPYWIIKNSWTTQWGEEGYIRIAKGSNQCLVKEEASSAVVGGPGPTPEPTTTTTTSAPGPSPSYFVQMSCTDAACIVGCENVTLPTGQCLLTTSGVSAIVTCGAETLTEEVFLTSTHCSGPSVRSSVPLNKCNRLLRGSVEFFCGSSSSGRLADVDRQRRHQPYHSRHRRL
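Cruzain (1.5 nM) preincubated 15 min at RT with compound in 100 mM sodium acetate pH 5.5, 5 mM DTT, 0.01% Triton X-100. Reaction started with 2 uM Z-FR-AMC; AMC fluorescence (ex 360/em 450 nm) change over 60 s gave rate.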
NS1 function inh: qHTS Assay for Inhibitors of Influenza NS1 Protein Function; hit rate 0.4% among 270,000; Potency, µM (series often up to 46.1 µM), inactives show at the top dose activity, positive = more growth; S. cerevisiae slowed by influenza A NS1, growth recovery by OD600; AID 2326, 2010; active means well fitted rising curve with a large enough effect; inconclusive means small, poorly fitted or top-dose-only effect; inactive means no such curve, though single readings can be large or run the other way; also: nearly all actives have a fitted effect of over 50% in size
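Growth recovery, yeast-based: influenza A NS1 expressed in S. cerevisiae causes slow growth, and suppressors are detected by OD600. The parent strain without NS1 is used as positive control.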
Lassa entry inh: qHTS for Inhibitors of binding or entry into cells for Lassa Virus. AID 540256, 2011. Potency, µM (top dose mostly 37.9 µM), without a hit: top-dose activity change, negative = inhibition, hits mostly inhibitors. hit rate 1.2% among 300,000. Lassa virus pseudotype entry inhibition, cell reporter; control for the full effect not named in the record; active means well fitted inhibition curve with a large enough effect; inconclusive means small, poorly fitted or top-dose-only effect, or effect the other way; inactive means flat fitted curve, though single readings scatter; tested in HEK293 cells; also: % is scaled to controls: 0 for no effect and ±100 for the full control effect; nearly all actives have a fitted effect of over 50% in size; luciferase read-out
RE007 growth inh: qHTS Assay for Inhibitors of the HIV-1 protein Vpr. hit rate 0.21% among 360,000. S. pombe RE007 Vpr strain, BacTiter-Glo ATP luminescence, 24 h; control for the full effect not named in the record. AID 651644, 2012. Potency, µM (series often up to 92.2 µM), without a hit: at the top dose activity change, negative = less growth; active = well fitted falling curve with a large enough effect; inconclusive = small, poorly fitted or top-dose-only effect; inactive = no such curve, though single readings can be large or run the other way;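 also: % is scaled to controls: 0 for no effect and ±100 for the full control effect; nearly all actives have a fitted effect of over 50% in size; the assay follows cell death caused by Vpr and the record does not say whether a fall means rescue or toxicity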
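Fission yeast RE007 carrying one integrated HIV-1 vpr copy, seeded at OD 0.01 in PMG+AL medium with 23 nL pinned compound. Grown 24 h at 30 degrees; viability read by BacTiter-Glo luminescence after 5 min.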
Cruzain noTriton: qHTS Assay for Promiscuous and Specific Inhibitors of Cruzain (without detergent) | hit rate 2.3% among 200,000 | purified cruzain, Z-FR-AMC fluorescence, no detergent | Cruzipain (Trypanosoma cruzi), P25779 | Potency, µM, inactives show max response, negative = inhibition, usual class: inhibitors;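 also: plate controls were enzyme without inhibitor for no effect and buffer without enzyme for full effect; nearly all actives have a fitted effect of over 40% in size; top concentration of the series not given in the record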
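Detergent-free condition (0.00005% Triton X-100) in acetate buffer pH 5.5 with DTT. 1.5 nM enzyme and compound were pre-mixed 15 min, then 2 uM Z-FR-AMC substrate added; reaction progress from fluorescence change between first and third reads (60 s).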
SARS PLpro yeast: qHTS of Yeast-based Assay for SARS-CoV PLP; Potency, µM (doses to about 32.9 µM), without a hit: top-dose activity, positive = growth rescue; hit rate 0.19% among 330,000; S. cerevisiae expressing SARS-CoV PLpro, growth rescue; control for the full effect not named in the record; active means well fitted rising curve with a large enough effect; inconclusive means small, poorly fitted or top-dose-only effect; inactive means no such curve, though single readings can be large or run the other way; also: 0% is about no effect; nearly all actives have a fitted effect of over 55% in size; growth read by luminescence after 48 h
2A StopGo: High Throughput Screening for Foot and Mouth Disease Virus Antivirals | human cells with a luciferase reporter of 2A StopGo recoding; control for the full effect not named in the record | Potency, µM (highest dose often 57.9 µM), for inactives: at the top dose signal change, negative = less light | hit rate 1.2% among 410,000 | AID 1159524, 2015; active = well fitted falling curve with a large enough effect; inconclusive = small, poorly fitted or top-dose-only effect; inactive = no such curve, though single readings can be large or run the other way; tested in HEK293T cells; also: % is scaled to controls: 0 for no effect and ±100 for the full control effect; nearly all actives have a fitted effect of over 45% in size; luciferase light after 4 h
Active calls of the source: *; ? = inconclusive; · = not tested or not shown; & = joins results of further samples; [ ] = another dose, or the depositor's remark. Unless noted, calls follow the shape of the dose curve; as a rule, active = well fitted curve in the direction sought with a large enough effect; inconclusive = small, poorly fitted or top-dose-only effect, or another doubt; inactive = no such curve, though single readings can be large; an effect the other way counts as inactive or inconclusive. Potency is read from the fitted curve at half-maximal effect.

SMILES	Marburg entry inh	Cruzain inh Det	NS1 function inh	Lassa entry inh	RE007 growth inh	Cruzain noTriton	SARS PLpro yeast	2A StopGo
CCCCCOC(=O)c1[nH]c2c(c1C)C(=O)C(C(=O)OC)C(C)C2 (stereo unspecified)	17.9%	-7.6%	-31.5%	-19.4%	?	14.1%	11.3%	-20.4%
COCCN1Cc2cccc(C(=O)NCc3cccs3)c2C1=O	0.0%	·	·	-19.9%	0.4%	·	0.8%	-0.6%
O=C(Nc1ccccc1C(=O)N1CCCCCC1)c1cccc(S(=O)(=O)N2CCOCC2)c1	-7.9%	1.9%	-1.9%	5.3%	5.6%	8.8%	2.4%	-6.1%
O=C1C=CC(=O)N1CCCCCCN1C(=O)C=CC1=O	?	2.3%	-44.3%	?	8.91µM*	-11.6%	-95.8%	39.8µM*
Cc1nc2ccccc2nc(C)c1=NOCc1ccccc1Cl	?	-5.8%	4.4%	8.7%	1.6%	-2.3%	1.5%	-9.8%
O=S(=O)(c1cccc2nsnc12)N1CCN(c2ccc(F)cc2)CC1	?	·	·	-24.7%[46.1 µM]	10.9%	·	-0.8%	0.0%
CC(=O)NC1(c2ccccc2)CCN(c2nc(C)cc(C)n2)CC1	-2.0%	5.7%	-0.9%	12.6%	-2.5%	9.0%	1.2%	-11.0%
Cc1ccccc1N1CCN(C2=NC(=O)/C(=C\c3cccs3)S2)CC1	10.0%	-14.1%	-7.3%	-16.4%	10.0%	?	-36.9%	22.2%
NC(Cc1ccccc1)c1nc2ccccc2[nH]1 (stereo unspecified)	16.3%[46.1 µM]	·	8.8%	18.2%	3.1%	·	1.8%	16.1%
O=C(CCSCc1ccc(Cl)cc1)NC1CCCC1	10.8%	-0.3%	-7.9%	?	28.0%	-8.0%	-26.3%	-11.8%
CC1=CC(C)C(CN(CCC[N+](C)(C)C)C(=O)Nc2ccccc2)C(C)C1 (stereo unspecified)	28.6%	·	-5.1%	7.0%	-25.4%	·	-0.3%	22.3%
O=C(C(F)C(F)(F)F)N1CCN(c2ccccc2)CC1 (stereo unspecified)	?	-0.3%	-3.1%	22.2%	6.3%	7.1%	-12.4%	·
O=C(c1sccc1-n1cccc1)N1CCCC1	2.5%	7.6%	-4.1%	0.4%	0.2%	-1.7%	-3.2%	-10.2%
COc1cccc(NC2CC(=O)N(CCc3ccccc3)C2=O)c1 (stereo unspecified)	-0.8%	6.7%	-3.9%	-0.4%	-26.1%	-5.9%	-5.5%	-18.2%
Nc1ccc2c(S(=O)(=O)O)cccc2c1S(=O)(=O)O	1.4%[46.1 µM]	·	·	16.7%[46.1 µM]	-22.1%	·	·	-0.2%
COc1ccccc1CNC(=O)CSc1cc(=O)n(C)c2ccccc12	10.8%&-20.0%[46.1 µM]	-0.1%	·	-10.9%	0.7%	1.4%	-1.6%	-0.1%&-18.3%
CSc1ccccc1C(=O)NCCSc1ccccc1	?	-2.6%	-54.1%	22.4%	-13.2%	8.5%	-4.8%	42.6%[activator]
Fc1ccccc1-c1nc2nc3ccccc3nc2n1CC1CCCO1 (stereo unspecified)	-25.4%[46.1 µM]	·	-7.8%	-20.6%	3.5%	·	0.1%	0.6%
CCC12C=CCN3CCC4(c5cc(Br)c(OC)cc5N(C)C4C(O)(C(=O)OC)C1OC(C)=O)C32 (stereo unspecified)	?	4.7%	-20.7%	-16.3%	10.9%	?	15.5%	-22.8%
O=C(Cn1ncc2c3ccccc3n(Cc3ccc(F)cc3)c2c1=O)NCc1ccccn1	8.9%[46.1 µM]	-2.0%	·	24.7%[46.1 µM]	·	-2.7%	·	-3.6%
COC(=O)c1ccccc1S(=O)(=O)N1CCC(C(=O)OCC(=O)NCC(F)(F)F)CC1	?	·	·	11.5%[46.1 µM]	3.0%	·	0.9%	-2.2%
CC(C(=O)NCC1CCCO1)c1ccc([N+](=O)[O-])cc1 (stereo unspecified)	0.6%[46.1 µM]	·	6.3%	2.2%[46.1 µM]	5.4%	·	1.0%	-1.0%
CCOc1ccc(C(=O)N[C@H](C(=O)Nc2cccc(S(=O)(=O)N3CCCCC3)c2)C(C)C)cc1	?	-0.4%	12.1%	-1.5%	-16.2%	?	0.9%	-2.5%
c1ccc(C(c2nnnn2C2CCCCC2)N2CCc3ccccc3C2)nc1 (stereo unspecified)	-22.8%	-2.7%	-37.8%	-2.0%	4.1%	-3.7%	0.7%	20.7%
Cc1noc(C)c1S(=O)(=O)N(CC(=O)N1CCCCCC1)c1ccc(C(C)C)cc1	-4.9%	-2.4%	-88.1%	·	-10.0%	25.9%	?	-20.9%
OCCN(Cc1ccccc1)Cc1ccccc1O	?	·	·	-3.3%[46.1 µM]	-3.4%	·	0.5%	-18.8%
Cc1ccc(Cc2nnc(SCC(=O)Nc3ccccc3)n(N)c2=O)cc1	27.0%	·	·	?	6.7%	·	-4.8%	-9.8%
Cc1ccc(CN(Cc2ccco2)C(=S)NCC(=O)O)cc1	-0.8%	1.8%	-5.6%	?	7.3%	0.5%	20.1%	-5.2%
CC(C)c1ccc(NC(=O)c2cc(S(=O)(=O)NCC3COc4ccccc4O3)ccc2F)cc1 (stereo unspecified)	?	-3.3%	-0.7%	?	1.0%	0.5%	-36.7%	?
COc1ccccc1OC[C@H](O)CO	·	-4.8%	9.9%	·	6.4%[18.4 µM]	8.0%	0.3%	-4.8%
OC(Cc1cccnc1)(c1ccccc1)c1ccccc1	-10.3%	0.3%	1.1%	5.5%[46.1 µM]	7.9%	-10.9%	·	?
CCOc1ccc(CCNC(=O)Cn2c(=O)oc3ccccc32)cc1OCC	0.7%	-0.6%	6.2%	1.7%	-0.6%	11.9%	6.2%	-19.0%
CN(C)CCCNS(=O)(=O)c1cc(Cl)c(Cl)cc1Cl	·	·	2.9%	·	3.4%	·	0.1%	-12.6%
CC1(C(=O)OCC(=O)NCc2ccc(Cl)cc2)CC1(Cl)Cl (stereo unspecified)	16.0%	·	·	0.7%	0.0%	·	2.2%	3.8%
Cc1ccc2c(c1)N(C(=O)CCC(=O)Nc1ccc(F)cc1F)CC(C)O2 (stereo unspecified)	-2.6%[46.1 µM]	-0.1%	·	-0.6%[46.1 µM]	·	-4.0%	·	-21.3%
COc1cc(/C=C/C(=O)O)cc(S(=O)(=O)Nc2ccc(S(=O)(=O)N3CCCCC3)cc2)c1OC	?	·	·	9.8%	-3.7%	·	4.7%	7.9%
CCOC(=O)c1sc(/N=C/c2c(O)ccc3ccccc23)cc1C	-13.6%	-9.7%	0.4%	1.3%	-21.5%	-5.7%	0.0%	11.9%
Cc1ccc(C(=O)Nc2cnc3ccccn3c2=O)cc1	-19.5%&-19.5%	-5.9%&-9.3%	-49.2%	0.0%[46.1 µM]	6.1%	-3.3%&-8.3%	-15.3%	41.7%&30.3%[activator]
O=C(NCc1ccc(Cl)cc1)C(=O)Nc1ccc(Br)cc1	·	0.8%	·	-17.3%[46.1 µM]	·	-1.2%	·	1.8%
COC(=O)CSc1nnc(CNc2ccc(Cl)cc2)n1Cc1ccccc1	2.2%	-2.3%	-82.1%	5.6%	0.1%	?	-29.6%	10.4%
CC1CCC(NC(=O)C2CCN(c3nc4ccccc4s3)CC2)CC1 (stereo unspecified)	-16.3%[46.1 µM]	·	-2.2%	?	-2.4%	·	6.1%	-21.3%
CC1=CC(C/C(C)=C/COc2ccc3ccc(=O)oc3c2)OC1=O (stereo unspecified)	·	·	-2.6%	·	3.7%	·	-0.5%	-22.1%
COC(CNC(=O)c1ccc(N2CCCC2=O)cc1)OC	-12.3%	0.2%	0.7%	-2.3%	-14.0%	3.0%	1.4%	18.0%
Cc1c(NC(=O)c2ccc(Cl)cc2)cc(C(C)C)c(O)c1S(=O)(=O)c1ccccc1	?	-2.4%	·	-29.1%[46.1 µM]	·	?	·	39.2%[activator]
COc1ccc(C)cc1-n1nnnc1SCC(=O)NC1CCCC1	-1.2%[46.1 µM]	·	·	11.0%	1.3%	·	-0.9%	-8.9%
Cc1c(C(=O)Nc2ccccc2)sc2nc(-c3cc4ccccc4oc3=O)[nH]c(=O)c12	·	-2.9%	·	14.2%[46.1 µM]	·	-4.9%	·	-7.8%
CCCc1nnc(SCc2ccc(OCC)cc2)n1N	1.3%&1.3%	-2.8%	-4.1%	7.2%	4.2%	-8.1%	3.0%	2.7%
Cc1cc(C)c(S(=O)(=O)c2ccc(F)cc2C)c(=O)[nH]1	·	·	2.2%	·	1.1%	·	-2.5%	-0.4%
Cc1cc(C)n(CCOc2ccc(Br)cc2)n1	·	·	-15.8%	·	2.6%	·	-4.5%	37.5%[activator]
Cc1nnc(SCCOc2ccccc2)s1	10.4%[46.1 µM]	·	0.8%	22.7%[46.1 µM]	14.6%	·	-0.6%	33.7%[activator]

The list goes on.
SMILES	Marburg entry inh	Cruzain inh Det	NS1 function inh	Lassa entry inh	RE007 growth inh	Cruzain noTriton	SARS PLpro yeast	2A StopGo
O=C(OCC(=O)N1CCOCC1)c1ccc(Cl)cc1[N+](=O)[O-]	4.0%[46.1 µM]	·	-5.9%	?	-16.1%	·	2.0%	11.9%
COc1ccc(N2C(=O)CCC(C(=O)NCc3cccnc3)C2c2ccc(OC)c(OC)c2)cc1 (stereo unspecified)	20.0%	5.3%	-3.9%	-7.9%	7.8%	11.3%	7.0%	-2.4%
O=C(CCCCn1c(=O)c2ccccc2n(Cc2ccc(F)cc2)c1=O)NCc1ccco1	?	-1.7%	5.3%	-25.0%	23.6%	-5.6%	1.6%	-3.5%
O=C(Nc1ccc(-c2noc(CCc3ccccc3)n2)cc1)c1cccnc1	?	4.8%	-5.8%	?	0.6%	?	-1.3%	?

Compound activity as filed in PubChem.
